HNF4A DNA FP: change in binding of human HNF4 alpha to DNA; activity change, % at 10 µM; hit rate 0.3% among 360,000; HNF4a-FITC DNA binding, fluorescence polarization, 1 h; P41235; in the data active = activity change above about 30%, passing the limit was not always enough;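 note: controls were the assay level and a saturating level of protein; the project sought stronger binding though the title names inhibitors; some compounds called inactive have numbers as strong as hits; positive values seem to mean higher polarization but the record does not say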
Ecoli growth: blocks Escherichia coli growth | OD600, 23 h; hits give low values | OD600 absorbance (no concentration beside the values) | hit rate 0.21% among 330,000;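 active = OD600 absorbance below the run mean of sample wells minus 3.6 SD, in any replicate, cut at about 0.56 in these data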;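 note: stock transfer was 300 nL into about 60 µL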
Vif A3G: HIV-1 Vif–A3G interaction blockers – biochemical, TR-FRET, GST-Vif 1-94, biotin-A3G peptide, dose response retest, primary screen (AID 1117319); inhibition, %; hits with a dose series show IC50 in µM; hit rate 0.57% among 260,000; TR-FRET GST-Vif / biotin-A3G peptide binding; higher % means a stronger effect; test concentration not given here; strong numbers were not always called active;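 active = above the screen mean plus three standard deviations and confirmed in dose response; inconclusive = results disagree or hit not tested in dose response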;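 note: Vif residues 1-94 fused to GST binding biotinylated APOBEC3G peptide 110-148; 0% = full assay without inhibitor and 100% = GST in place of GST-Vif; retest series ran down from 100 µM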
Ecoli rRNA inh: selective bacterial rRNA inhibition in E. coli; E. coli WT GFP vs humanized-ribosome RFP mutants, fluorescence, 24 h; hits give low values; DMSO median 0, no signal -100; AID 720706; hit rate 1.6% among 350,000; GFP signal change (wild-type ribosome), % (concentration not given with the values);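 active = significant combined selectivity score with lowered wild-type GFP, culture density cut under 30%, mutant RFP and density less affected; inactive = any of these conditions unmet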; note: one replicate is shown; some compounds called inactive have numbers as strong as hits
AF4-AF9 inh: inhibitors of human MLL-AF4/AF9 interaction; AlphaScreen, biotin-AF4 peptide binding to FLAG-AF9; P42568; AID 651704; inhibition, % at 10 µM; hit rate 0.47% among 350,000;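 active = every replicate reaching a set inhibition limit, whatever the replicate mean, cut at about 25% in these data; inconclusive = mean inhibition reaches that limit but some replicates miss it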;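 note: 0% = plate neutral control median and 100% = total signal loss; the record names both 10 and 1 µM as test concentration; the first replicate is given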
Target sequence (P42568 whole entry, looked up): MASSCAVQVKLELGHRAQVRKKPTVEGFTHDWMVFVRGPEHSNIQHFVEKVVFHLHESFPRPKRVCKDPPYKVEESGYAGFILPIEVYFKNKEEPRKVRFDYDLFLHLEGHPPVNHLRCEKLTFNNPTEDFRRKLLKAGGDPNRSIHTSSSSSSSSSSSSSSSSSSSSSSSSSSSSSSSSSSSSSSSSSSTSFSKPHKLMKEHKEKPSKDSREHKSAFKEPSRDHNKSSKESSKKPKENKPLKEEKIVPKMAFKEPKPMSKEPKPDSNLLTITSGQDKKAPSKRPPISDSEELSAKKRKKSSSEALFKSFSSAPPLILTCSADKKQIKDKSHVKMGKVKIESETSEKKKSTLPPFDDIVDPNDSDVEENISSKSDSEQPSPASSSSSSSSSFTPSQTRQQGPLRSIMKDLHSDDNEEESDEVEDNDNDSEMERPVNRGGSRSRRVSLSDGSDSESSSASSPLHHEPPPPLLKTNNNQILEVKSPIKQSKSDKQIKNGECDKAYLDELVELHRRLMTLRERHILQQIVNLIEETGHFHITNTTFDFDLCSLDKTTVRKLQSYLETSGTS
ALR inh: blocks human ALR sulfhydryl oxidase activity; P55789; purified ALR, DTT oxidation, H2O2 HRP-luminol luminescence; inhibition, % (concentration not given with the values); hit rate 3.8% among 290,000; AID 485317;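 active = mean and each replicate at 75% or more; inconclusive = only one of the two met; inactive = neither met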;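 note: stock transfer was 7.5 nL into about 7.5 µL; 0% = neutral wells and 100% = wells with inactivated enzyme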
Target sequence (P55789 whole entry, looked up): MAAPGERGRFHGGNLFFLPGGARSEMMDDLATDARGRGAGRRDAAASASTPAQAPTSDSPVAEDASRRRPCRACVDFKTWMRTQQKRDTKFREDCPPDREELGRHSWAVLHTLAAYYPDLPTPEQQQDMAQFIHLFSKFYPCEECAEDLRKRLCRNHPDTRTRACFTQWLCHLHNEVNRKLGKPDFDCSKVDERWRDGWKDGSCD
FGF22 binding: binders of recombinant human FGF22 by thermal shift; calls only at 9.99 µM; Q9HCT0; hit rate 1.5% among 340,000; SYPRO orange fluorescence; percent of sucrose octasulfate shift, DMSO zero;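 active = melting point raised past a set limit in the mean and every replicate; inconclusive = no clear call; three in four hits are not shown here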
Target sequence (Q9HCT0 whole entry, looked up): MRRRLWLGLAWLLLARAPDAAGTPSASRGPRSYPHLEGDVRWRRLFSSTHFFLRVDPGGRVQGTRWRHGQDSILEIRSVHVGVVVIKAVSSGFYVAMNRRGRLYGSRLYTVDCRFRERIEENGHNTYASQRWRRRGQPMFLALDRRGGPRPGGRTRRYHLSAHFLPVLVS
Ecoli rRNA inh OD600: second read-out of Ecoli rRNA inh, no call of its own (marks repeat the call); OD600 change, %; measured here: OD600 growth;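 optical density of the mix in the first replicate; 0 = DMSO median and -100 = no signal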
Ecoli rRNA inh RFP: further read-out of Ecoli rRNA inh, marked with its call; RFP signal change, %; measured here: RFP humanized mutant strains;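 first replicate; 0 = DMSO median and -100 = no signal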
Numbers without * were called inactive; i = inactive; ? = inconclusive; nt = not tested or not shown. Not all compounds are listed; count on the stated rates, not on these rows.

SMILES	HNF4A DNA FP	Ecoli growth	Vif A3G	Ecoli rRNA inh	Ecoli rRNA inh OD600	Ecoli rRNA inh RFP	AF4-AF9 inh	ALR inh	FGF22 binding
COc1cccc(CNC(=O)CCCN2C(=O)C(c3ccccc3)Oc3cccnc32)c1OC (stereo not drawn)	3.9	0.726	-2.9%	-7.1	-10.1	3.2	-0.2	-44.0	i
CC(C)C#Cc1ccc([C@@H]2[C@H]3CN(CC4CC4)CCCCN3[C@H]2CO)cc1	nt	nt	nt	5.6	-3.6	0.3	-0.2	nt	i
C[C@@H]1CN([C@@H](C)CO)S(=O)(=O)c2ccc(-c3ccc(C(=O)N(C)C)cc3)cc2O[C@@H]1CN(C)C(=O)C1CCOCC1	nt	nt	nt	3.4	3.2	-1.2	-5.8	nt	i
C[C@@H]1CCCCO[C@@H](CN(C)S(=O)(=O)c2ccc(F)cc2)[C@@H](C)CN([C@H](C)CO)C(=O)c2cc(NC(=O)NC3CCCCC3)ccc2O1	nt	nt	nt	2.7	-0.7	0.1	0.5	nt	i
Cc1ccc(CS(=O)(=O)Cc2ccc(C(=O)NC3CCCC3)o2)cc1	0.2	0.684	nt	8.5	4.1	-7.7	-0.9	-0.5	i
CCc1ccc(NC(=S)Nc2ccc3[nH]c(=O)[nH]c3c2)cc1	4.7	0.658	?	0.5	-3.7	-4.2	1.8	nt	i
Cc1ccc(Cc2c(-c3cccc(Cl)c3)nc3cc(C)c(Br)c(C)n23)cc1	7.0	nt	nt	18.8	20.6	38.5	2.5	nt	i
Nc1cc(=O)n(Cc2ccccc2)c(=O)n1-c1ccc(F)cc1	7.1	0.696	-1.0%	20.5	13.0	3.2	-3.7	0.1	i
C[C@H]1CN([C@@H](C)CO)S(=O)(=O)c2ccc(C#CCN(C)C)cc2O[C@H]1CN(C)C(=O)C1CCC1	nt	nt	nt	-2.3	-7.0	-1.9	-2.1	nt	i
COc1ccc(-c2cc(C(=O)Nc3cccnc3Cl)no2)cc1OC	3.5	0.679	nt	3.8	6.2	-1.2	0.4	0.9	i

Profiles, looked up by structure. Values in the order: HNF4A DNA FP, Ecoli growth, Vif A3G, Ecoli rRNA inh, Ecoli rRNA inh OD600, Ecoli rRNA inh RFP, AF4-AF9 inh, ALR inh, FGF22 binding
Nc1cc(=O)n(Cc2ccccc2)c(=O)n1-c1ccc(F)cc1 is entered as 7.1, 0.696, -1.0%, 20.5, 13.0, 3.2, -3.7, 0.1, i
Cc1ccc(Cc2c(-c3cccc(Cl)c3)nc3cc(C)c(Br)c(C)n23)cc1 is entered as 7.0, nt, nt, 18.8, 20.6, 38.5, 2.5, nt, i

The list continues:
SMILES	HNF4A DNA FP	Ecoli growth	Vif A3G	Ecoli rRNA inh	Ecoli rRNA inh OD600	Ecoli rRNA inh RFP	AF4-AF9 inh	ALR inh	FGF22 binding
CCOC(=O)C1=C(CSc2nc3c(cc2C#N)CN(C)CC3)OC(N)=C(C#N)C1c1ccccc1 (stereo not drawn)	-7.3	0.748	?	nt	nt	nt	nt	nt	nt
CC(=O)NC(c1ccccc1)c1nc(-c2ccc(Cl)cc2)cs1 (stereo not drawn)	1.0	nt	nt	-4.6	-8.9	1.5	-2.7	nt	i
CCc1cc2c(SCC(=O)N3CCN(C(=O)c4cccs4)CC3)ncnc2s1	-1.8	nt	2.9%	-7.0	-14.0	1.5	1.7	nt	i
CCn1nc([N+](=O)[O-])c(C(C#N)c2nc3cc(C(F)(F)F)ccc3s2)c(Cl)c1=O (stereo not drawn)	-1.8	0.708	?	nt	nt	nt	nt	98.1*	nt
COCCNC(=O)C[C@H]1CC[C@H]2[C@@H](COC[C@H](O)CN2Cc2cccc(-c3ccncc3)c2)O1	nt	nt	nt	-0.1	-3.3	-4.8	-9.7	nt	i
COc1ccc2c3c(n(C)c2c1)[C@H](CO)N(Cc1ccncc1)CC31CCN(C(=O)C2CC2)CC1	nt	nt	nt	4.4	-3.3	3.2	0.1	nt	i
COc1ccc(CC2CC(=O)N(c3ccc(C)cc3)C2=O)cc1 (stereo not drawn)	1.2	0.726	nt	22.7	15.8	0.5	-0.7	-2.0	i
CCOC(=O)C1CCN(C(=O)Cn2nc(C)n3nc(-c4ccc(CC)cc4)cc3c2=O)CC1	2.5	0.691	nt	-9.8	-0.5	-8.1	-1.3	34.0	i
CCOC(=O)c1[nH]c2ccc(Br)cc2c1NC(=O)CCN1CCCC(C)(C)C1	-0.1	0.693	-7.7%	-3.0	-8.1	2.5	4.8	1.3	i
CCCNC(=O)N(C)C[C@@H]1Oc2ncc(C3=CCCCC3)cc2C(=O)N([C@H](C)CO)C[C@@H]1C	nt	nt	nt	-2.5	-10.0	0.1	-12.6	nt	i
Cc1c(C)n(Cc2ccc(F)cc2)c2ccc(C(=O)NCCN3CCOCC3)cc12	-1.3	0.681	nt	-6.5	-20.9	5.8	11.5	7.8	i
CNC(=S)N1CCN(C(=O)C2CCCO2)CC1 (stereo not drawn)	-0.7	0.714	?	nt	nt	nt	nt	-6.4	nt
C[C@H]1CN([C@@H](C)CO)C(=O)c2cc(NC(=O)C3CCCCC3)ccc2O[C@H]1CN(C)CC1CC1	nt	nt	nt	-0.2	13.5	-3.1	-0.7	nt	i
O=S(=O)(NCCCCCNS(=O)(=O)c1ccc(F)cc1)c1ccc(F)cc1	0.7	0.712	-4.0%	nt	nt	nt	nt	-16.8	nt
Cc1ccc(CSCC(=O)N/N=C/c2cccc(OC3CSC3)c2)cc1	0.8	nt	nt	1.0	-3.5	-4.0	-4.3	-4.6	i
O=C(O)/C=C/c1cnc2ccccc2n1	2.8	0.719	-1.2%	16.1	6.1	1.6	0.4	7.0	i
CCC(CO)Oc1cc(NCc2ccccn2)c2ncn(C(C)C)c2c1 (stereo not drawn)	2.9	0.679	nt	0.2	-4.7	7.0	-9.3	33.1	i
CCN(CC)S(=O)(=O)c1cccc(NC(=O)C(=O)c2c(-c3ccccc3)cc3ccccn23)c1	-2.9	0.681	7.4%	nt	nt	nt	nt	-0.9	nt
COc1ccc(N2CCN(CCNC(=O)c3nnc(Cc4c(F)cccc4Cl)o3)CC2)cc1	-0.3	0.72	-3.0%	nt	nt	nt	nt	10.7	nt
Cc1ccc[n+](CC(=O)N2CCCc3ccccc32)c1	-0.1	0.661	10.2%	19.4	13.8	-0.3	-1.2	-7.8	i
Cc1ccccc1C(=O)c1cccn1CC(=O)NCC1CCCO1 (stereo not drawn)	1.3	0.724	20.4%	nt	nt	nt	nt	-2.5	nt
Cc1cc(=O)n2nc(N3CCC(C(=O)Nc4c(F)c(F)c(F)c(F)c4F)CC3)sc2n1	1.9	0.638	nt	0.1	8.2	-1.8	-3.3	-0.7	i
COc1ccccc1N1CCN(CC(=O)NCCc2ccc(S(N)(=O)=O)cc2)CC1	4.2	0.654	-0.7%	19.0	16.9	3.8	-0.7	5.4	i
CC1=CC=CC2=NC(=O)CC(C)(C(=O)N(CC(=O)NC3CCCC3)c3ccccc3C)N12 (stereo not drawn)	6.3	0.714	2.1%	nt	nt	nt	nt	-1.4	nt
O=C(C[C@@H]1CC[C@@H](NC(=O)Nc2cc(F)ccc2F)[C@@H](CO)O1)NCCCN1CCOCC1	nt	nt	nt	1.0	7.6	-2.1	-1.7	nt	i
Cc1c(Cl)cccc1NC(=S)N1CCN(c2ccc([N+](=O)[O-])cn2)CC1	0.7	0.639	-24.3%	-9.8	3.0	1.8	nt	-2.8	i
CN1C(=O)/C(=C\c2ccc(OC(=O)c3ccco3)cc2)SC1=S	27.4	0.75	nt	-0.3	-0.4	-2.9	1.6	1.2	i
COc1ccc(C(=O)N/N=C/c2ccccn2)cc1	0.6	nt	nt	nt	nt	nt	0.2	nt	i
CCOC(=O)c1c(-c2ccccc2)csc1NC(=O)/C(C#N)=C\c1ccc(O)c(OC)c1	137.2	0.707	6.6%	11.9	-14.1	24.9	-0.2	nt	i
Cc1ccc(S(=O)(=O)N2CCN(Cc3nc4sc(C)c(C)c4c(=O)[nH]3)CC2)cc1	-0.5	0.673	>100µM*	nt	nt	nt	nt	-5.0	nt
Cc1cc(C)nc(SCCN2CCCCC2)n1	0.5	0.633	nt	-0.1	1.3	-3.0	0.3	-0.1	i
Cc1c(N=C(N)/N=C(\N)Nc2ccccc2)c(=O)n(-c2ccccc2)n1C	-0.6	nt	-1.0%	15.1	2.8	2.3	0.5	-36.7	i
Cc1noc(C)c1NC(=O)N[C@@H]1CC[C@@H](CCNC(=O)C2CCCC2)O[C@@H]1CO	nt	nt	nt	3.6	1.8	-0.5	-5.4	nt	i
COc1ccc(S(=O)(=O)Nc2ccc3c(c2)C(=O)N([C@H](C)CO)C[C@@H](C)[C@@H](CN(C)C(=O)Nc2ccc(F)cc2)O3)cc1	nt	nt	nt	-2.5	3.8	0.0	-1.5	nt	i
COc1ccccc1-c1cnc(C(O)c2ccc(CN3CCCCC3)cc2)[nH]1 (stereo not drawn)	-3.0	nt	nt	13.6	21.4	4.6	3.5	nt	i
S=C(N/N=C/c1ccc2ncccc2c1)Nc1ccccc1	-0.5	nt	?	-14.1	-31.3	-12.4	1.3	3.8	i
C[C@@H]1CN([C@H](C)CO)C(=O)c2cc(N(C)C)ccc2O[C@@H]1CN(C)S(=O)(=O)c1ccc(F)cc1	nt	nt	nt	-1.9	2.7	-2.8	1.6	nt	i
COc1ccc(Cc2nnc(SCC(=O)Nc3ccc(N4CCOCC4)cc3)n2C)cc1	0.2	0.645	nt	2.4	-7.0	-0.3	-11.4	40.7	i
NC(=O)C1(N2CCCCC2)CCN(C(=O)c2cccn3c(=O)c4cc(Cl)ccc4nc23)CC1	0.9	0.657	3.0%	nt	nt	nt	nt	-2.6	nt
Cc1c(Cc2ccc3c(c2)OCO3)sc(NC(=O)c2ccc3ccccc3c2)c1C(N)=O	-1.6	0.825	22.1%	4.7	8.8	2.3	-4.6	0.3	i
O=S(=O)(c1ccccc1C(F)(F)F)N1CCN(S(=O)(=O)c2ccccc2C(F)(F)F)CC1	2.7	0.747	-1.7%	nt	nt	nt	nt	-4.9	nt
NS(=O)(=O)c1ccc(NC(=S)N2CCN(c3ccccc3)CC2)cc1	0.8	0.653	3.4%	nt	nt	nt	nt	19.3	nt
O=C(Nc1nc(-c2ccccc2)cs1)c1ccc(S(=O)(=O)N2CCc3ccccc32)cc1	-0.4	0.748	nt	-2.6	23.9	21.8	4.5	1.2	i
CCCC#Cc1ccc([C@@H]2[C@@H](C#N)N(S(C)(=O)=O)[C@@H]2CO)cc1	nt	nt	nt	-1.7	12.8	-3.0	0.2	nt	i
CCN1C(=O)[C@@H]2[C@@H](c3ccc(-c4ccc(C(C)=O)cc4)cc3)N3CCC[C@@]3(C(=O)OC)[C@@H]2C1=O	0.3	nt	nt	1.4	-4.3	-4.8	2.8	41.5	i
C[C@@H]1CN([C@H](C)CO)C(=O)c2cc(C#CCc3ccccc3)cnc2O[C@@H]1CN(C)Cc1cccc(C(=O)O)c1	nt	nt	nt	1.0	4.9	-6.4	-2.2	nt	i
CCn1nc(C)cc1C(=O)N1CCCC(Nc2ccc(F)c(F)c2)C1 (stereo not drawn)	-7.8	0.694	3.0%	-1.1	1.3	-0.6	-0.3	13.6	i
O=C(CN1CCOCC1)Nc1ccc(Oc2ccccc2)cc1	-0.6	0.711	0.0%	nt	nt	nt	nt	nt	nt
COc1cc(/C=N/Nc2ccc(Cl)c(C(=O)O)c2)ccc1OC(=O)c1ccccc1F	2.3	nt	nt	-21.2	-22.7	-2.3	4.6	98.9*	i
COc1ccc(NC(=O)C(=O)N/N=C(\C)CC(=O)Nc2cc(C)ccn2)c(OC)c1	7.7	nt	14.3%	9.1	8.3	1.4	-14.4	9.6	i
COCCNC(=O)C(c1ccccc1F)N(C(=O)C(=O)NC1CCCC1)C1CCCCC1 (stereo not drawn)	-0.5	0.668	nt	6.7	-3.3	-0.9	-2.2	-4.8	i
